Compound activity as filed in PubChem.
Tgondii IFNg: T. gondii growth inhibition with IFN-gamma, primary screen, cell-based | Toxoplasma gondii growth in IFN-gamma-treated host cells; active compounds read low; reference of the scale not given here | activity change, negative = inhibition, %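 (about 20 µM by stock and volumes)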 | 3.8% of 69,000 active | AID 1259416, 2018;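 active = below -70%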;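 note: host cells are HeLa cells infected with Toxoplasma gondii; parasite growth read as luciferase light; one replicate is shown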
Starred values were filed as active, the others as inactive; i = inactive; & = joins results of further samples.

SMILES	Tgondii IFNg
O=C(CN1CCOCC1)N1CC[C@@H]2[C@H]1c1cc(-c3ccccc3F)ccc1N[C@@H]2CO	193
COc1ccccc1NC(=O)N1CCCCN2[C@H](CO)[C@@H](c3ccc(-c4cccc(C#N)c4)cc3)[C@@H]2C1	-51
CC(C)c1noc(C2CCCN(C(=O)c3cnnn3-c3ccccc3)C2)n1 (stereo not given)	-64
CC(C)(C)CC(Nc1nc(-c2cccnc2)nc2c1CNC2)c1cccnc1 (stereo not given)	-18
CCc1cc(N(C)CCc2noc(C)n2)nc(N2CCOCC2)n1	32
O=C(CC1CCC2(CC1)CCN(c1ncc(F)cn1)CC2)N1CC=CC1	-49
c1ccc2oc(C3=NCCN3)cc2c1	5&5
O=C(CCCc1cccs1)N1CCC2(CCCNC2)C1 (stereo not given)	-14
Cc1cccc(S(=O)(=O)N[C@@H]2CC[C@@H](CCNC(=O)Nc3cc(F)ccc3F)O[C@H]2CO)c1	-16
COc1ccc(OCC(=O)c2c[nH]c3ccccc23)cc1	59
CCCc1nc(C)cc(N2CCN(c3cn[nH]c(=O)c3)CC2)n1	-21
CCS(=O)(=O)N1[C@H](CO)[C@@H](c2ccc(C#CCC3CCCC3)cc2)[C@@H]1C#N	-38
Cc1oc(-c2cccc(C(F)(F)F)c2)nc1CN1[C@@H]2CC[C@H]1CC(O)C2 (stereo not given in full)	-4
CN1CCOC(CCNC(=O)c2cnc(-c3ccccn3)nc2)C1 (stereo not given)	-37
CCc1ccc(NC(=O)N2CCc3nc(N4CCCC4)nc(C)c3CC2)cc1	13
Nc1c(C(=O)c2ccc[nH]2)cnn1-c1ccc(F)cc1	-21
Cc1cc(F)ccc1NC(=O)CN1C(=O)CCc2cc(S(=O)(=O)N3CCCC3)ccc21	80
CCCNC(=O)C[C@H]1CC[C@H]2[C@@H](COC[C@H](O)CN2Cc2ccncc2)O1	-49
COc1cccc(NC(=O)c2ccnn2-c2ccc3ccccn23)c1	-14
Cc1ccc2c(NC(=O)c3ccc(Cn4cnnn4)cc3)c(C)ccc2n1	4
COc1ccccc1S(=O)(=O)N(C)C[C@H]1OCc2ccccc2-c2ccccc2C(=O)N([C@H](C)CO)C[C@@H]1C	-31
O=C1CCCN1CC1CN(c2ncc(F)cn2)Cc2nccn2C1 (stereo not given)	4
COc1c(C)cc(-c2nccc(C)n2)cc1C	10
CCc1ccc(Nc2nc(C(=O)NCc3ccccc3F)nc3ccccc23)cc1	-35
C=CCn1c(=O)c(-c2nc(-c3cccc(Cl)c3)no2)c(O)c2ccccc21	6
SMILES	Tgondii IFNg
CC(=O)Nc1ccc(NC(=O)C2c3ccccc3Oc3ccccc32)cc1	-17
C=CCNc1nnc(Cl)c2ccccc12	-35
Cc1noc([C@@]23COC[C@@H]2CN(C(=O)c2csc(C)n2)C3)n1	-2
CC(=O)Nc1ccc(C(=O)N(CCC2=CCCCC2)C2(C(=O)NCc3ccccc3)CCN(C(C)=O)CC2)cc1	-11
O=C(Nc1ccccc1-c1cn2c(CN3CCNCC3)csc2n1)c1cnc2ccccc2n1	-59
Cc1noc(CCC(=O)Nc2cccc(-n3cccn3)c2)n1	10
CC(=O)CSc1nc(SCC(C)=O)c2cnc(N3CCCC3)nc2n1	-11
CN(CCn1ccc2ccccc21)C(=O)Cc1nn[nH]n1	-1
COc1ccc(-c2nc(CCNC(=O)c3ccc(Br)o3)cs2)cc1	78
O=C(Nc1cccc(Cl)c1)N1CCC2(CC1)Nc1ccccc1-n1cccc12	i
CC(C)N1CCNC(=O)C1CC(=O)NCCc1cnc2ccccn12 (stereo not given)	3
COCC(=O)N1CC(=O)N2[C@H](CO)[C@@H](c3ccc(C#CC4CC4)cc3)[C@@H]2C1	-37
COc1ccccc1CCC(=O)N1CCC2(CC1)Nc1cccnc1NC2=NC(C)(C)C	75
O=C1CCc2cc(S(=O)(=O)NCc3ccccc3Cl)cc3c2N1CCC3	0
CN(C)C(=O)CC1CC2(CCN(C(=O)N3CCOCC3)CC2)c2ccccc21 (stereo not given)	7
Nc1nc2c(c(-c3cccnc3)n1)CN(C(=O)c1cc(F)c(F)c(F)c1)C2	2
Cc1ccc(Nc2nc(C(=O)Nc3cccc(C)c3)nc3ccccc23)cc1	-64
Cc1cccc(C)c1NC(=O)Cn1c(=O)cc(C(=O)N2CCc3ccccc3C2)c2ccccc21	2
CN(C1CC2C=CC1C2)S(=O)(=O)c1cc(C(F)(F)F)cc(C(F)(F)F)c1 (stereo not given)	-14
CN1N=C(SCc2ccc(Cl)cc2Cl)Sc2c1cnn(C)c2=O	-61
COCC(=O)N1[C@H](CNC(=O)c2ccccn2)[C@@H](c2ccccc2)[C@@H]1CO	1
C[C@@H]1CN([C@H](C)CO)C(=O)Cc2cc(NC(=O)CCC(F)(F)F)ccc2O[C@@H]1CN(C)CC1CC1	-14
O=C(NC1CCc2c(ccc(=O)n2Cc2cccnc2)C1)c1ccco1 (stereo not given)	-7
CCS(=O)(=O)N1CCN(C(=O)c2nn(C)c3c2CCCC3)CC1	5
CCOC(=O)c1ccccc1NCn1nc(-c2ccccc2Br)oc1=S	162
SMILES	Tgondii IFNg
Cn1cccc1CN1C[C@H]2CN(C(=O)c3cccs3)C[C@@H]2C1	-3
CN1[C@@H](c2ccc(Cl)cc2)[C@@H](C(=O)NC2CCC(O)CC2)C[C@@]1(C)C(=O)O (stereo not given in full)	-1
C=CCCc1n[nH]c(Cc2ccccc2)n1	-39
CCn1cc(CN2CCCC2c2cc(C(C)C)on2)c2ccccc21 (stereo not given)	3
CCn1cc(Cn2ccnc2-c2ccc(C(=O)O)cc2)cn1	-5
CC(=O)N1CCC(OCc2ccccc2)CC1	-5
Cc1cc(C)cc(NC(=O)C(=O)NCCc2csc(-c3ccc(Cl)cc3)n2)c1	-35
COCC(=O)N1CCO[C@H]2[C@H]1CC[C@H]2OCC1CCOCC1	171
CC(=O)c1cc(C(=O)NCCc2nc(-c3cccnc3)n[nH]2)cs1	-36
O=C(c1cnccn1)N1CCC2(CCC(=O)N2Cc2cccnc2)CC1	-8
COc1ccc(-c2noc(-c3c(O)c4cc(C)ccc4[nH]c3=O)n2)c(OC)c1	28
O=C(COc1ccc(Cl)cc1)N1CCC2(CC1)Nc1cc(F)ccc1-n1cccc12	100
Cc1ccc(-c2nc(C)c(CCNC(=O)c3ccc(Cl)cc3)s2)cc1	106
C[C@H](CO)N1C[C@H](C)[C@@H](CN(C)S(C)(=O)=O)Oc2c(NC(=O)Nc3ccc4c(c3)OCO4)cccc2C1=O	12
CN(C)CC1(O)CCN(C(=O)c2cc(-c3cccs3)n(C)n2)C1 (stereo not given)	2
Cc1ccccc1C(=O)N1CCC(N2CCOCC2)CC1C(=O)O (stereo not given)	-53
CCn1ccnc1CN1CCCCC1c1cc(C(=O)NC2CCCC2)n[nH]1 (stereo not given)	-12
Cc1onc(C(=O)Nc2ccc3nc(Cc4ccccc4)[nH]c3c2)c1CN(C)C	2
CCC(=O)N1CCC(C)(C(=O)NCc2ccc(F)cc2F)CC1	31
CN(C)c1ccc(C(=O)Cc2ccccc2)cc1	i
COc1ccccc1-c1cc(=O)n(-c2nc3ccccc3s2)[nH]1	124
CC1CCCCN1S(=O)(=O)c1ccc2c(c1)CCC(=O)N2CC(=O)NCc1ccccc1 (stereo not given)	-23
c1ccc(-c2ccc(-c3[nH]ncc3CN3CCN4CCCC4C3)cc2)cc1 (stereo not given)	32
COc1cc(C(=O)N2CCC3(CC2)Nc2ccccc2-n2cccc23)cc(OC)c1OC	17
Cc1cc(C)n2c(C(=O)N3[C@@H]4CC[C@H]3CN(C)C(=O)C4)nnc2n1	5

Rewritten as labelled records: entries from further up
SMILES: CCn1cc(Cn2ccnc2-c2ccc(C(=O)O)cc2)cn1
  Tgondii IFNg: -5

SMILES: CC(=O)N1CCC(OCc2ccccc2)CC1
  Tgondii IFNg: -5

SMILES: Cc1cc(C)cc(NC(=O)C(=O)NCCc2csc(-c3ccc(Cl)cc3)n2)c1
  Tgondii IFNg: -35

Next structures follow:
SMILES	Tgondii IFNg
Cc1cccc(S(=O)(=O)N[C@H]2CC[C@@H](CCNC(=O)Nc3cc(F)ccc3F)O[C@H]2CO)c1	-41
CC(Cn1cncn1)C(=O)Nc1ccccc1C(=O)N1CCCCCC1 (stereo not given)	225
CC(=O)NCCC1CCCCN1C(=O)C(=O)Nc1ccccc1Cl (stereo not given)	4
CCC(C#N)(c1ccccc1)c1ccc(N)cc1 (stereo not given)	9
CCOc1ccccc1-c1noc(-c2c(O)c3cc(C)ccc3[nH]c2=O)n1	18
COc1cccc(CN2CCN(C(=O)c3cnn(C(C)C)c3)[C@@H](C)C2)c1	7
S=C(NCc1ccccc1)NCc1cccc(CNC(=S)NCc2ccccc2)c1	-2
CC1(C)C2CCC1(CS(=O)(=O)NCc1ccc(C(F)(F)F)cc1)C(=O)C2 (stereo not given)	-63
Cc1ccc2nc(SCC(=O)Nc3ccc(F)cc3)c(C)cc2c1	-26
CCN(CC)C(=O)CC1CC2(CCN(Cc3ccccn3)CC2)c2ccccc21 (stereo not given)	-6
COc1ccccc1NC(=O)N1C[C@@H]2N[C@H](C1)C2c1ccc(-c2cccc(C#N)c2)cc1 (stereo not given in full)	-33&-53
CC(C)Cc1ccc(S(=O)(=O)N2CCC[C@@H]2C(=O)NCCc2csc(-c3ccccc3)n2)cc1	-57
CCNc1ccnc(-c2cnc3ccccc3c2)n1	13
O=C(c1cccc(OC2(C(=O)O)CCSCC2)c1)N1CCOCC1	2
COc1ccc(-c2cc(C(=O)Nc3nc4c(s3)CN(C)CC4)[nH]n2)cc1	3
CC(C)c1ccc(C(=O)N2CCc3c(ncnc3N(C)C)C2)c(=O)[nH]1	-5
CCCNC(=O)N1CC(=O)N2[C@H](CO)[C@@H](c3ccc(C#Cc4cccc(OC)c4)cc3)[C@H]2C1	13
CNC(=O)COC1COC2(CCN(C(=O)C3CCCO3)C2)C1 (stereo not given)	59
CC(C)(C)CN1CC2CN(S(=O)(=O)c3ccccc3)CC2C1 (stereo not given)	-3
CN1C(=O)C(c2c[nH]c3ccccc23)(c2c[nH]c3ccccc23)c2ccccc21	-24
O=C(c1ccc(F)c(F)c1)N1CCN(S(=O)(=O)c2cc3c4c(c2)CCN4C(=O)CC3)CC1	9
Cc1cc(-c2ccc(-c3ccn[nH]3)cc2)cnc1-n1cnnc1	-77*
Cc1cc(=O)oc2cc(CN3CCC(N4CCSCC4)CC3)ccc12	2
Cc1ccsc1CN(C)C(=O)c1cc(CC(C)C)nc(N)n1	-1
COc1ccc(Br)cc1-c1nc(Cn2nnc(C(=O)Nc3ccccc3)c2C)c(C)o1	19
SMILES	Tgondii IFNg
Cc1nc(CCC(=O)N2CCc3c(nc(N(C)C)nc3N(C)C)C2)n[nH]1	24
CCCn1c(=O)c(-c2nc(-c3cccc(Br)c3)no2)c(O)c2ccccc21	7
OCCn1ncc2c1CN(c1nc3ccccc3s1)C2	373
Cc1nnc([C@H]2CO[C@H]3CN(C(=O)c4ccc(C)s4)C[C@H]32)o1	-15
Cn1ccnc1CN1CCC2(CC(=O)N(c3ccc(F)c(F)c3)C2)C1 (stereo not given)	-41
O=C(c1ccccc1)N1CCC(NCCN2CCc3ccccc32)CC1	-12
Cc1cccc(NC(=O)Cn2c(=O)cc(C(=O)N3CCCCC3)c3ccccc32)c1C	15
C[C@H]1CN([C@@H](C)CO)C(=O)c2cccc(NC(=O)Nc3ccc(C(F)(F)F)cc3)c2O[C@@H]1CN(C)S(=O)(=O)c1cn(C)cn1	17
CC(=O)N1CCc2c(nc(N(C)C)nc2N2CCCN3CCC[C@H]3C2)C1	6
Fc1cnc(N2CCOCC3(CCCN(Cc4ccccc4)C3)C2)nc1 (stereo not given)	2
FC(F)(F)c1ccc(SCCCN2CCN(c3cccc(Cl)c3)CC2)nc1	10
Cc1ccc(C(=O)Nc2ccc(Oc3ccc(C(C)(C)C)cc3)nc2)cc1	-32
Cc1ccc(C2(O)CCN(C(=O)c3n[nH]c4c3CN(C)CC4)CC2)nc1	-51
CN(Cc1noc2c1CCCC2)c1ncnc2c1CCN(C(=O)C1CC1)C2	-3
Cc1ccc(-n2ncc3c(-n4nc(C)cc4NC(=O)C4CCCC4)ncnc32)c(C)c1	-106*
CC(=O)N1CCC2(CC1)OC(=O)C(C)=C2C(=O)N1CCN(C(=O)c2ccco2)CC1	27
C=CCN1CCN(C(C)C)C(=O)C12CCN(Cc1cncn1C)C2 (stereo not given)	-4
CC(c1cccc(-c2cncc(C(=O)N3CCOCC3)n2)c1)N1CCCC1 (stereo not given)	-1

Gathered by group, those above with an aryl methoxy group
SMILES	Tgondii IFNg
COc1ccccc1NC(=O)N1CCCCN2[C@H](CO)[C@@H](c3ccc(-c4cccc(C#N)c4)cc3)[C@@H]2C1	-51
COc1ccc(OCC(=O)c2c[nH]c3ccccc23)cc1	59
COc1cccc(NC(=O)c2ccnn2-c2ccc3ccccn23)c1	-14
COc1ccccc1S(=O)(=O)N(C)C[C@H]1OCc2ccccc2-c2ccccc2C(=O)N([C@H](C)CO)C[C@@H]1C	-31
COc1c(C)cc(-c2nccc(C)n2)cc1C	10
COc1ccc(-c2nc(CCNC(=O)c3ccc(Br)o3)cs2)cc1	78
COc1ccccc1CCC(=O)N1CCC2(CC1)Nc1cccnc1NC2=NC(C)(C)C	75
COc1ccc(-c2noc(-c3c(O)c4cc(C)ccc4[nH]c3=O)n2)c(OC)c1	28
COc1ccccc1-c1cc(=O)n(-c2nc3ccccc3s2)[nH]1	124
COc1cc(C(=O)N2CCC3(CC2)Nc2ccccc2-n2cccc23)cc(OC)c1OC	17
COc1cccc(CN2CCN(C(=O)c3cnn(C(C)C)c3)[C@@H](C)C2)c1	7
COc1ccccc1NC(=O)N1C[C@@H]2N[C@H](C1)C2c1ccc(-c2cccc(C#N)c2)cc1 (stereo not given in full)	-33&-53
COc1ccc(-c2cc(C(=O)Nc3nc4c(s3)CN(C)CC4)[nH]n2)cc1	3
CCCNC(=O)N1CC(=O)N2[C@H](CO)[C@@H](c3ccc(C#Cc4cccc(OC)c4)cc3)[C@H]2C1	13
COc1ccc(Br)cc1-c1nc(Cn2nnc(C(=O)Nc3ccccc3)c2C)c(C)o1	19

These rows are one share of the data (hit frequency here may not be typical).
